# Source: PubChem
# VDR inh: Inhibitors of the vitamin D receptor (VDR): qHTS. Vitamin D3 receptor (Homo sapiens), P11473. VDR-SRC2-3 peptide fluorescence polarization, 2 h. Potency, µM, for the others: max response, negative = inhibition, usual class: inhibitors. 0.93% of 400,000 active; active = well fitted inhibition curve with a large enough effect; inconclusive = small, poorly fitted or top-dose-only effect, or another doubt; inactive = no such curve, though single readings can be large or run the other way; note: series mostly up to about 120 µM
# Target sequence (P11473 whole entry, looked up): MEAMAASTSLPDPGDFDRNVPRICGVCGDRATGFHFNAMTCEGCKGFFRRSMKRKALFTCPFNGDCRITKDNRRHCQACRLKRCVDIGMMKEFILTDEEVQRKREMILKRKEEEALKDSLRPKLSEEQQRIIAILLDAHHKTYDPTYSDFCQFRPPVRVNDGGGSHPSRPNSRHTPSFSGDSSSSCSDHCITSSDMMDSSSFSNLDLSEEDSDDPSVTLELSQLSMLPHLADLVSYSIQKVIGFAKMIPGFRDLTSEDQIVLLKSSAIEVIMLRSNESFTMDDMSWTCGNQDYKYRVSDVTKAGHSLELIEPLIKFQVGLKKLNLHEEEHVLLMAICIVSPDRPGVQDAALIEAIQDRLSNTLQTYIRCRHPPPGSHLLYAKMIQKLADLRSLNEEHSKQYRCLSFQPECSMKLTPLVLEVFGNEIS
#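 The screen uses fluorescence polarization to detect compounds that interfere with recruitment of the SRC2-3 coactivator peptide to VDR; plates are read after 2 h at room temperature.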
# * = called active by the depositor; ? = inconclusive; & = joins results of further samples; [ ] = dose if it differs, or a comment. % is set by controls: 0 for no effect and ±100 for the full control effect; potency is the fitted concentration of half-maximal effect. Only part of the results is shown. The share of hits here may be higher or lower than overall.
# The first six records, to show the layout:
compound	VDR inh
O=C1CC(c2ccccc2Cl)C2=C(COC2=O)N1 (centres undefined)	-2%
COc1cc(C)c(Br)cc1S(=O)(=O)NCCN1CCOCC1	5%
Cc1cccc(NC(=O)CN2c3ccccc3S(=O)(=O)c3ccccc32)c1C	-1%
Cc1cc(Cl)ccc1-n1c(CCC(=O)O)ccc1-c1cccs1	?
Cc1ccc(C2=[N+]([O-])C3(CCCCC/C3=N\O)N(O)C2(C)C)o1 (centres undefined)	-6%
CC1CN(C(=S)Nc2ccccc2C(F)(F)F)CC(C)O1 (centres undefined)	5%

# The whole of this part, from the first entry:
compound	VDR inh
O=C1CC(c2ccccc2Cl)C2=C(COC2=O)N1 (centres undefined)	-2%
COc1cc(C)c(Br)cc1S(=O)(=O)NCCN1CCOCC1	5%
Cc1cccc(NC(=O)CN2c3ccccc3S(=O)(=O)c3ccccc32)c1C	-1%
Cc1cc(Cl)ccc1-n1c(CCC(=O)O)ccc1-c1cccs1	?
Cc1ccc(C2=[N+]([O-])C3(CCCCC/C3=N\O)N(O)C2(C)C)o1 (centres undefined)	-6%
CC1CN(C(=S)Nc2ccccc2C(F)(F)F)CC(C)O1 (centres undefined)	5%
Cc1nn(C)c(C)c1NC(=O)COc1ccc(Cl)cc1Br	-29%
CCOC(=O)NC(=O)CSc1nnc(C2CC2)n1Cc1ccco1	-6%
N=c1c2c3c(sc2ncn1Nc1ccccc1)CCC3	3%
O=C(CSc1ncccc1-c1nc2ccccc2[nH]1)NC1CC1	15%
COc1ccc(C2C3C(=O)N(N(C)c4ncc(C(F)(F)F)cc4Cl)C(=O)C3ON2C)cc1 (centres undefined)	17%
COCCN(C(=S)Nc1cccc(OC)c1)C1CCN(C(C)=O)CC1	-3%
COc1ccc(C(=O)NCCc2nnc3ccc(SCC(=O)NCc4ccccc4)nn23)cc1	?
Cc1ccc(NC(=S)NN(C)c2cc(C)nc(C)n2)cc1	-26%
COc1ccc(-n2ncc(C(=O)NCCc3ccsc3)c2C2CCN(C(=O)OC(C)(C)C)CC2)cc1	12%
CC(C)CN(C(=O)COC(=O)Cc1ccc(Cl)cc1)c1c(N)n(Cc2ccccc2)c(=O)[nH]c1=O	-20%
COC(=O)C1=C(C(=O)OC)C2(OC1c1ccccc1C)C(=O)c1ccccc1C2=O (centres undefined)	-2%
Cc1sc2ncn(CC(=O)NCC(=O)N3CCN(c4ccccc4F)CC3)c(=O)c2c1C	-2%
CC(=O)c1cccc(NC(=O)c2ccoc2C)c1	23%
Cc1[nH]nc2c1C(=O)CCC2	-4%

compound	VDR inh
CC(=O)c1cccc(NC(=O)COc2ccc3oc(=O)cc(C)c3c2)c1	-22%
COCCNC(=O)c1cccc(OC2CCN(Cc3cccc(SC)c3)CC2)c1	5%
C/C(=C\C(=O)C(F)(F)F)Nc1ccc(C)cc1	5%
Cc1cc(OCC(=O)Nc2ncn[nH]2)ccc1Cl	?
O=S(=O)(N/N=C/c1ccc2c(c1)OCO2)c1ccc(Br)cc1	-7%
COc1ccc(Nc2nc(C)nc3sc4c(c23)CCC4)cc1O	7%
COc1ccccc1CNC(=O)c1cn(C)c2ccc(S(=O)(=O)N3CCCC3)cc2c1=O	0%
CCc1nnc(NC(=O)c2ccc(-c3ccc(C(C)=O)cc3)o2)s1	-16%
COc1cccc(C(=O)Nc2cccc(-c3ccc(N4CCOCC4)nn3)c2)c1	-10%
CSc1nccc(NC(=O)c2ccc(C(C)(C)C)cc2)n1	-10%
Nc1nc(-c2ccccc2Br)cs1	37%[activator]
CC1CCc2c(sc3nnn(CCCCOc4ccc(Cl)cc4)c(=O)c23)C1 (centres undefined)	9%
CCN1CCN(C(=O)Cn2c(=O)sc3ccccc32)CC1	3%
Cc1ccc(NS(=O)(=O)c2ccc(NC(=O)CSc3ccc(Cl)cc3)cc2)c(C)c1	6%
O=C(O)c1ccccc1CSc1nnc2c(n1)[nH]c1ccccc12	-4%
O=C(NCc1ccco1)c1ccccc1NS(=O)(=O)c1ccc(Br)s1	-1%
Cc1ccc(OCCNC(=O)CCc2ccccc2)cc1C	-10%
C=CC1=CCN(S(=O)C(C)(C)C)[C@@H]1CCO (some centres undefined)	6%
O=c1c2ccccc2ncn1CCCCOc1ccc(Br)cc1	-26%
CCOC(=O)c1[nH]c2ccc(OC)cc2c1NC(=O)c1cccc(OC)c1	0%

# Reprinted at random: three records from the list
compound	VDR inh
Cc1ccc(OCCNC(=O)CCc2ccccc2)cc1C	-10%
Cc1cc(OCC(=O)Nc2ncn[nH]2)ccc1Cl	?
CC1CCc2c(sc3nnn(CCCCOc4ccc(Cl)cc4)c(=O)c23)C1 (centres undefined)	9%

# Following part
compound	VDR inh
Cc1oc(-c2cccc(Br)c2)nc1CN1CCC(C(=O)NCCc2ccc(Cl)cc2)CC1	-4%
Cc1ccc(C2=CC(c3ccccc3F)n3c(nc4ccccc43)N2)cc1C (centres undefined)	-11%
CN(C)c1ccc(-c2c(C3C4C=CCCC4(C)C(=O)N3Cc3ccccc3)ccc3ccccc23)cc1 (centres undefined)	-21%
CCN1CCN(c2ccc([N+](=O)[O-])c(Sc3nc4ccccc4[nH]3)c2)CC1	3%
CN(Cc1ccccc1)c1ncnc2c1cnn2-c1ccccc1	-9%
O=C(CCN1N=C(c2ccccc2)CCC1=O)NCC1CCCO1 (centres undefined)	-3%
S=c1[nH]c2ccccc2s1	35µM*
Cc1ccc(S(=O)(=O)NCCC(=O)N2CCN(c3ccccc3)CC2)cc1C	-7%
O=C(NNc1ccccc1)c1ccc(Cl)c(Cl)c1	?
CCCc1cc(=O)[nH]c(SCC(=O)NCCCC(=O)OCC)n1	7%
COc1ccccc1N1CCN(C(=O)CNS(=O)(=O)c2ccc(Br)s2)CC1	3%&-3%
COc1cc(CCN2C(=O)N[C@@H](c3cccc(C(F)(F)F)c3)C(C(C)=O)=C2C)cc(OC)c1OC	2%
CC(Cc1ccsc1)NC(=O)CCc1nnc(COc2ccccc2)o1 (centres undefined)	-8%
CCN1/C(=C/c2ccc3cc(C)ccc3[n+]2C)Sc2ccc3sccc3c21	-1%
O=C(CN1CCN(C2CCCCC2)CC1)Nc1ccccc1-c1ccccc1	0%
COc1ccc(-c2cc(C(=O)OCC(=O)c3c(N)n(C)c(=O)n(C)c3=O)c3ccccc3n2)cc1	0%
Cc1occc1C(=O)N/N=C/c1ccc(N(C)C)cc1	2%
O=C(CN1c2ccccc2S(=O)(=O)c2ccccc21)NCc1ccc(F)cc1	3%
CC1(C)C(=O)Nc2ccccc2N1C(=O)c1ccc([N+](=O)[O-])cc1	-11%
CCN(CC)CC#Cc1ccc(C)cc1	-5%

# A second format for 3 compounds above.
COc1ccc(-c2cc(C(=O)OCC(=O)c3c(N)n(C)c(=O)n(C)c3=O)c3ccccc3n2)cc1
  VDR inh: 0%

CCN1/C(=C/c2ccc3cc(C)ccc3[n+]2C)Sc2ccc3sccc3c21
  VDR inh: -1%

Cc1occc1C(=O)N/N=C/c1ccc(N(C)C)cc1
  VDR inh: 2%

# New compounds follow
compound	VDR inh
O=C(Nc1ccc(F)cc1)N1CCN(c2ccc(F)cc2)CC1	12%
COc1ccccc1CNC(=O)COC(=O)Cc1cccs1	-7%
COc1ccc(NC(=S)Nc2cccc3ccccc23)cc1OC	-17%
COc1cc(Cl)c(C)cc1NC(=O)CSc1cc(Cl)ccc1Cl	?
C[C@H](NC(=O)c1ccco1)C(=O)Nc1cc(S(=O)(=O)N2CCCC2)ccc1OCC(F)(F)F	5%
CC(C)(C)C(=O)NCCCc1nc2ccccc2n1CCCOc1ccc(Cl)cc1	6%
Cc1ccc(CCNc2ncnc3onc(C)c23)cc1	8%
C=CCn1cc(C(=O)NCCOC)c(=O)c2cc(S(=O)(=O)N(CC)CC)ccc21	-9%
OC(COc1c(F)cc(Br)cc1F)CN1CCN(c2ccc(F)cc2)CC1 (centres undefined)	19%
COc1ccc(NC(=O)C2CCCN(S(=O)(=O)c3ccc4c(c3)oc(=O)n4C)C2)cc1OC (centres undefined)	-9%
CCOc1ccc(CCNC(=O)C(CCC(N)=O)NC(=O)OCc2ccccc2)cc1OCC (centres undefined)	-1%
CCOc1ccccc1N1CC(c2nc3ccccc3n2CCOc2ccc(OC)cc2)CC1=O (centres undefined)	7%
CCN(C(=O)CN1C(=O)c2ccccc2S1(=O)=O)C1CCCCC1	-16%
Cc1ccc(C)c(N2CCN(c3ccc(N4C(=O)COCC4=O)cc3[N+](=O)[O-])CC2)c1	-16%
c1ccc(-c2nc(-c3ccco3)n3ccccc23)cc1	-15%
COc1ccccc1CNCC(=O)Nc1cc(S(=O)(=O)N2CCCCCC2)ccc1Cl	1%
COC(=O)CCc1c(C)[nH]c(C(=O)OCc2ccccc2)c1C	10%
O=C(CSc1n[nH]c(=O)[nH]c1=O)Nc1cccc(S(=O)(=O)N2CCOCC2)c1	-9%
Cc1cc(=O)oc2c3c(cc(OCC(=O)N[C@@H](Cc4ccccc4)C(=O)O)c12)OC(C)(C)CC3	-8%
COc1ccc(/C=N/NC(=O)CSc2nnc(CCCc3ccc(OC)c(C)c3)o2)cc1	5%

compound	VDR inh
O=C(O)c1ccc(-n2nnnc2SCc2cccc(Br)c2)cc1	-6%
COc1ccc(-c2nc(=S)n3ccsc3n2)cc1OC	-7%
O=C(Nc1ccc(F)cc1F)N1CCC(c2nc3ccccc3o2)CC1	9%
COc1ccc(O)c(C(=O)c2cc(C#N)c(=O)n(-c3c(C)n(C)n(-c4ccccc4)c3=O)c2)c1	-2%
C#CCNC(=O)C1=C[C@@H](c2ccccc2)[C@H](CCCO)[C@@H](OCC)O1	-9%
COCCNC(=S)NNC(=O)c1cc(C2CC2)nc2ccccc12	6%
O=C(CN1CCOc2ccccc21)NCc1ccc(Cl)cc1	-13%
Cc1cc(C)cc(C(=O)NCC(=O)OCC(=O)N(C)c2ccccc2)c1	-18%
c1csc(-c2cnc3ccccc3n2)c1	-1%
Cc1cccc(N2CCN(C(=S)c3ccc([N+](=O)[O-])cc3)CC2)c1	?
Cc1noc(C)c1S(=O)(=O)N(CC(=O)NC1CCCC1)c1ccc(C(C)C)cc1	-14%
CNC(=O)CSc1nc2ccccc2c(=O)n1C1CCCCC1	-17%
O=C(CCc1nc2ccccc2s1)Nc1cccnc1	-11%
O=c1c(Cc2ccccc2)c(O)ccn1Cc1ccco1	15%
COc1ccccc1N1CCN(S(=O)(=O)CCNC(=O)COc2ccc(F)cc2)CC1	-2%
CCN1C(=O)CC(N2CCC(C(=O)OC)CC2)C1=O (centres undefined)	-6%
C/C(=N\NC(=O)Cc1ccc(F)cc1)c1ccc(O)cc1	-16%
COc1ccc(S(=O)(=O)NCCc2c[nH]c3ccc(C)cc23)cc1	-14%
COc1cccc(/C=C/C(=O)OCC(=O)NCCc2ccccc2)c1	-16%
CCN(CC)S(=O)(=O)c1cc(NC(=O)COC(=O)CCc2nc3ccccc3s2)ccc1C	7%

molecule,VDR inh
O=[N+]([O-])c1ccc(OCCCCCN2CCOCC2)cc1,12%
CCOc1ccc(CNC(=O)CCS(=O)(=O)Cc2ccc(C)cc2)cc1OC,-14%
CNc1cccccc1=S,?
N#Cc1ccccc1NC(=O)C(=O)NCCc1csc(-c2ccc(C(F)(F)F)cc2)n1,2%
Cc1cc(C)c(C(=O)CSc2nnc(-c3cccnc3)n2C)c(C)c1,-1%
CCC(Sc1nncn2c1cc1occc12)C(=O)Nc1ccc(C)c(Cl)c1 (centres undefined),-1%
O=c1[nH]c2ccccc2cc1CN(c1ccccc1)S(=O)(=O)c1ccccc1,8%
Cn1c(=O)c2c(ncn2CC(=O)N2CCCCCC2)n(C)c1=O,28%
CC(=NCc1ccco1)C1=C(O)c2ccccc2C1=O,16%
C=CCn1c(SCC(=O)NC2CC2)nnc1-c1ccccn1,33%[activator]
O=c1c(-c2cccs2)nc2cnc(Oc3ccccc3)nc2n1-c1ccccc1,4%
CSc1ncnc2[nH]ccc12,-9%
COc1cccc(NC(=O)COC(=O)CCC2CCCC2)c1,4%
CCOC(=O)Cc1ccc(NC(=O)N(Cc2ccc(CC)cc2)Cc2cn[nH]c2-c2ccc(OC)cc2)cc1,14%
Clc1ccc(OCCSc2nnnn2C2CCCCC2)cc1,11%
CC(=O)C1=C(O)C(=O)N(CC#N)C1c1cccs1 (centres undefined),-14%
Cn1c(SCC(=O)c2ccccc2)nnc1-c1cccnc1,5%
C=CCN(c1ccccc1)S(=O)(=O)c1ccc2c(c1)NC(=O)C(C)S2 (centres undefined),-4%
COc1ccc(S(N)(=O)=O)cc1C(=O)OCCCOC(=O)c1cc(S(N)(=O)=O)ccc1OC,-2%
Cc1nnc(NC(=O)CSc2nc3[nH]ncc3c(=O)[nH]2)s1,2%
CCOC(=O)C1=C(C)N=c2s/c(=C\c3ccncc3)c(=O)n2C1c1ccc2c(c1)OCO2 (centres undefined),?
CCOc1ccccc1C(=O)NC(C(=O)Nc1cccnc1)C(C)C (centres undefined),-24%
COc1ccc(-c2nc(Cn3c(SCc4ccccc4F)nc4cccnc43)c(C)o2)cc1,4%
N#C/C(=C\c1ccc(-c2ccc(C(=O)O)cc2)o1)c1nc2ccccc2[nH]1,13%&-15%
COc1ccc(CNCCSc2nnnn2-c2ccccc2)c(OC)c1,4%
Clc1ccc2[nH]c3c(c2c1)CCc1cn[nH]c1-3,8%
CC(=O)c1c(C)[nH]c(C(=O)NCC2CCCCC2)c1C,-9%
CC1=CC=CC2=NC(=O)CC(C)(C(=O)N(CC(=O)NC3CCCC3)c3ccc(F)cc3)N12 (centres undefined),-16%
CC(C)(C)OC(=O)N1CCCC1C(=O)NC1COC2CC(n3cc(F)c(=O)[nH]c3=O)OC12 (centres undefined),-14%
